High-throughput results (PubChem)
CSC inhib: cancer stem cell inhibition. cancer stem cell-like cells viability, luminescence. inhibition, % at 7.5 µM. 1.1% of 300,000 active. AID 2717;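 active = mean at 75% or more and at least half the replicates too; tested in HMLE shEcad cells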;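 also: 0% = median of negative and 100% = median of positive control wells; the first replicate is given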
MT1-MMP act inh: MT1-MMP (human) activation inhibition; HT1080 RFP-PRO-GFP cells, GFP/RFP ratio fluorescence, overnight; percent of plate control window, DMSO zero; P50281; GFP/RFP ratio change, % at 20 µM; 0.061% of 360,000 active; AID 651647;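 active = GFP/RFP ratio change of at least 30% with cell ATP level not reduced by more than half and red fluorescence within 50% of control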; also: strong numbers were not always called active
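Assay system: HT1080 cells carrying an RFP-PRO-GFP reporter | Dosing: Single dose of 20 µM compound, 1% DMSO final | Incubation: Cells overnight before dosing, compound overnight, 37 °C, 5% CO2 | Evaluation: GFP/RFP fluorescence ratio | Control set: DMSO and RFP-L50D-GFP cell wells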
eIF4H FP inh: inhibitors of RNA binding by human eIF4H; Q15056; eIF4H fluorescence polarization binding assay; inhibition, % at 35 µM; 0.94% of 290,000 active;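 active = 50% or more with normal probe brightness, or confirmed in later tests; about a fifth of its hits are not listed in these tables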;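 also: calls also rest on retests at 20 µM and on dose response follow-up; 0% = protein and probe with vehicle and 100% = probe without protein; strong numbers were not always called active; many hits fall short of the cut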
HIV Env fusion: inhibitors of HIV Env-mediated cell fusion | inhibition, % at 12.3 µM | 1.1% of 360,000 active | HeLa-JRFL Env/CEM21 cell fusion, luciferase | AID 651610;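 active = mean replicate inhibition score of at least 50 and every replicate individually at or above 50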;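 also: 0% = plate neutral controls and 100% = maraviroc near 300 nM; one replicate is shown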
PABP FP inh: PABP-poly(A) binding inhibition; 1% of 290,000 active; inhibition, % at 35 µM; PABP-poly(A) RNA binding, fluorescence polarization;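 active = 50% or more with normal probe brightness, or confirmed in later tests; about a fifth of its hits are not listed in these tables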;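 also: calls also rest on retests at 20 µM and on dose response follow-up; controls were probe without protein and protein plus probe with vehicle; some compounds called inactive have numbers as strong as hits; many hits fall short of the cut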
Rce1 inh: inhibitors of yeast Ras-converting enzyme; 0.27% of 290,000 active; yeast membranes, quenched prenylated peptide cleavage fluorescence; calls only; Q03530; AID 2563;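 active = fall in fluorescence gain of 50% or more versus controls, with final raw signal at or below 3038400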;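 also: plate controls were neutral control wells for no effect and wells lacking membranes for full effect; tested at 10 µM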
Target sequence (Q03530 whole entry, looked up): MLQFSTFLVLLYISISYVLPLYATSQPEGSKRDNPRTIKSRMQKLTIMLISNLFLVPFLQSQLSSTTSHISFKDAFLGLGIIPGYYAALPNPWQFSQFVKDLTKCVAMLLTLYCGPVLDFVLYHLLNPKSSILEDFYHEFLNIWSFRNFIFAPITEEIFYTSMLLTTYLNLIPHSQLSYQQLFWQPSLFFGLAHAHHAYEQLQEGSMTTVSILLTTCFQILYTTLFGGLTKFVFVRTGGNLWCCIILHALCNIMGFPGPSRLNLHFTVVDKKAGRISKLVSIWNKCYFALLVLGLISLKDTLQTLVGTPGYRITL
UUG fidelity: modulators of start codon recognition fidelity in yeast | S. cerevisiae UUG-firefly luciferase reporter, luminescence/redox ratio | activity score, % at 18.7 µM | 0.13% of 350,000 active;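 active = replicate mean at a twofold rise or more, about +100% in these data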;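 also: firefly luciferase made from a UUG start codon reports start codon fidelity; reporter light over untreated wells divided by growth signal over untreated wells; some hits fall short of that in this replicate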
eIF4H FP inh retest: recorded beside eIF4H FP inh, whose call it bears; inhibition, %; compound at 20 µM; confirmation average;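 mean of two retest wells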
PABP FP inh retest: second read-out of PABP FP inh, no call of its own (marks repeat the call); inhibition, %; compound at 20 µM; confirmation repeats;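 mean of two retest wells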
MT1-MMP act inh RFP: further read-out of MT1-MMP act inh, marked with its call; RFP signal change, %; measured here: RFP expression control read;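 0 = vehicle wells; hits needed this value within 50% of zero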
An asterisk follows results filed as active; i = inactive; . = not tested or not shown. A portion of the library; rates above refer to the full screens.

SMILES	CSC inhib	MT1-MMP act inh	MT1-MMP act inh RFP	eIF4H FP inh	HIV Env fusion	PABP FP inh	Rce1 inh	UUG fidelity	others
O=C(CSc1ccc2nnc(-c3cccnc3)n2n1)Nc1ccccc1F	.	0	1	.	-4	.	.	-15
CCCCCc1ccc(CC(=O)O)cc1	-6	0	3	-9	4	-2	i	.
COc1cccc(/C=N/Nc2nnc3c(n2)[nH]c2ccccc23)c1OC	-8	2	-2	0	10	3	i	.
Cc1cc2nc(C(C)(C)C)cc(N)n2n1	-7	1	1	-2	18	-5	i	-20
CCOC(=O)N(C)S(=O)(=O)c1ccccc1[N+](=O)[O-]	-19	-6	-7	9	-4	0	i	.
CC(C)C(C(=O)NCc1ccco1)N(C(=O)CNS(=O)(=O)c1ccccc1)C1CCCC1 (stereo not given)	-11	3	-2	-5	.	-3	i	2
COC(=O)c1ccc2c(=O)n(CC3CCCO3)c(=S)[nH]c2c1 (stereo not given)	-8	2	6	7	.	7	i	-20
COc1cc2c(cc1[N+](=O)[O-])-c1ccc([N+](=O)[O-])cc1C2	.	-10	-2	.	-144	.	.	-9
COc1ccccc1CNC(=O)c1ccccc1OC	-3	2	5	-4	-32	2	i	-13
CN1CCCN(c2cc(-c3ccc4ccccc4c3)nc3ccnn23)CC1	.	61	56	.	-6	.	.	11
COc1cc(C(c2sc3nc(C)nn3c2O)N2CCN(c3ccccc3)CC2)cc(OC)c1OC (stereo not given)	-2	3	2	2	-11	-3	i	-14
O=C(Cn1cnc2c(NC(=O)OCc3ccccc3)ncnc21)NCc1ccccn1	-16	0	5	.	-31	.	.	-4
O=C1Nc2ccccc2N(O)N1c1cc(-c2ccccc2)[nH]n1	-12	1	6	-1	-9	-21	i	-17
Cc1c(NC(=O)c2ccc(NS(=O)(=O)c3ccc(F)c(F)c3)cc2)c(=O)n(-c2ccccc2)n1C	-6	6	0	.	.	.	.	14
Nc1nc(C(F)(F)F)cc(=O)n1N	3	0	0	-3	-6	0	i	-14
Cc1cccc([C@@H]2[C@@H]3C(=O)N(Cc4ccccc4)C(=O)[C@@H]3[C@]3(Cc4ccccc4)C(=O)N(c4cccc(Cl)c4)C(=O)N23)c1	4	-4	-4	.	-206	.	i	1
CC(=O)Nc1c2c(nn1-c1ccc(C)cc1C)CSC2	-11	4	1	-4	.	-16	i	13
Cc1ccc2c(=O)cc(C(=O)Nc3ccc(S(=O)(=O)Nc4onc(C)c4C)cc3)oc2c1	.	-1	1	-2	-7	2	i	-12
Cc1ccc(Cl)cc1NC(=O)c1ccccn1	-4	-3	4	-3	-16	3	i	0
O=C(O)c1cccc(NC(=O)c2cccc(NC(=O)C3CCCO3)c2)c1 (stereo not given)	-9	3	3	5	.	7	i	-37
CCN1CCN(CC(=O)Nc2ccc(S(=O)(=O)N3C(C)CCCC3C)cc2)CC1 (stereo not given)	-2	-2	4	12	12	9	i	7
CC1CC1C(=O)OCC(=O)NC(=O)NC12CC3CC(CC(C3)C1)C2 (stereo not given)	3	7	2	-4	10	50	i	.	eIF4H FP inh retest=-6;PABP FP inh retest=2
Cc1noc(C)c1C(=O)OCC(=O)NCCc1ccc(S(N)(=O)=O)cc1	-5	0	3	.	-15	.	.	-9
Cc1cccc(NC(=O)CSc2nc(NS(=O)(=O)c3ccccc3)cc(=O)[nH]2)c1	-5	0	-3	0	-1	12	i	.

17 entries out of the list, ordered by molecular weight, low to high:
SMILES	CSC inhib	MT1-MMP act inh	MT1-MMP act inh RFP	eIF4H FP inh	HIV Env fusion	PABP FP inh	Rce1 inh	UUG fidelity	others
Cc1ccc(Cl)cc1NC(=O)c1ccccn1	-4	-3	4	-3	-16	3	i	0
COc1ccccc1CNC(=O)c1ccccc1OC	-3	2	5	-4	-32	2	i	-13
COc1cc2c(cc1[N+](=O)[O-])-c1ccc([N+](=O)[O-])cc1C2	.	-10	-2	.	-144	.	.	-9
CC(=O)Nc1c2c(nn1-c1ccc(C)cc1C)CSC2	-11	4	1	-4	.	-16	i	13
CCOC(=O)N(C)S(=O)(=O)c1ccccc1[N+](=O)[O-]	-19	-6	-7	9	-4	0	i	.
O=C1Nc2ccccc2N(O)N1c1cc(-c2ccccc2)[nH]n1	-12	1	6	-1	-9	-21	i	-17
COC(=O)c1ccc2c(=O)n(CC3CCCO3)c(=S)[nH]c2c1 (stereo not given)	-8	2	6	7	.	7	i	-20
CC1CC1C(=O)OCC(=O)NC(=O)NC12CC3CC(CC(C3)C1)C2 (stereo not given)	3	7	2	-4	10	50	i	.	eIF4H FP inh retest=-6;PABP FP inh retest=2
O=C(O)c1cccc(NC(=O)c2cccc(NC(=O)C3CCCO3)c2)c1 (stereo not given)	-9	3	3	5	.	7	i	-37
CN1CCCN(c2cc(-c3ccc4ccccc4c3)nc3ccnn23)CC1	.	61	56	.	-6	.	.	11
Cc1noc(C)c1C(=O)OCC(=O)NCCc1ccc(S(N)(=O)=O)cc1	-5	0	3	.	-15	.	.	-9
O=C(Cn1cnc2c(NC(=O)OCc3ccccc3)ncnc21)NCc1ccccn1	-16	0	5	.	-31	.	.	-4
Cc1ccc2c(=O)cc(C(=O)Nc3ccc(S(=O)(=O)Nc4onc(C)c4C)cc3)oc2c1	.	-1	1	-2	-7	2	i	-12
CC(C)C(C(=O)NCc1ccco1)N(C(=O)CNS(=O)(=O)c1ccccc1)C1CCCC1 (stereo not given)	-11	3	-2	-5	.	-3	i	2
COc1cc(C(c2sc3nc(C)nn3c2O)N2CCN(c3ccccc3)CC2)cc(OC)c1OC (stereo not given)	-2	3	2	2	-11	-3	i	-14
Cc1c(NC(=O)c2ccc(NS(=O)(=O)c3ccc(F)c(F)c3)cc2)c(=O)n(-c2ccccc2)n1C	-6	6	0	.	.	.	.	14
Cc1cccc([C@@H]2[C@@H]3C(=O)N(Cc4ccccc4)C(=O)[C@@H]3[C@]3(Cc4ccccc4)C(=O)N(c4cccc(Cl)c4)C(=O)N23)c1	4	-4	-4	.	-206	.	i	1

Quoted at random: 2 records from the list, in no set order.
SMILES	CSC inhib	MT1-MMP act inh	MT1-MMP act inh RFP	eIF4H FP inh	HIV Env fusion	PABP FP inh	Rce1 inh	UUG fidelity	others
COc1cc2c(cc1[N+](=O)[O-])-c1ccc([N+](=O)[O-])cc1C2	.	-10	-2	.	-144	.	.	-9
O=C(CSc1ccc2nnc(-c3cccnc3)n2n1)Nc1ccccc1F	.	0	1	.	-4	.	.	-15

The list goes on:
SMILES	CSC inhib	MT1-MMP act inh	MT1-MMP act inh RFP	eIF4H FP inh	HIV Env fusion	PABP FP inh	Rce1 inh	UUG fidelity	others
CCOC(=O)c1nc(C)nc(Sc2n[nH]c(-c3ccccc3)n2)c1C	-4	0	-1	-11	13	-7	i	-3
CC(C)=CCc1c(O)ccc(C2COc3c(CC=C(C)C)c(O)cc(O)c3C2=O)c1O (stereo not given)	-5	2	-2	.	.	.	.	-10
Cc1ccc(-n2c(Cn3cnc4ccccc43)nnc2SCC(=O)O)cc1	-12	-1	-2	15	17	-5	i	-10
O=C(CSc1nc2ccccc2[nH]1)NC(=O)NCc1ccco1	.	-8	1	-2	.	-9	i	-13
Cn1c(CSc2ncccn2)nnc1SCC(=O)N1CCCC1	-10	3	-2	-11	-4	6	i	-15
COc1ccc(CCN(C)C(=S)NC(=O)c2ccc(F)cc2Cl)cc1OC	-3	4	-6	3	11	-6	i	.
Cc1cccc(NC(=O)CSc2nc(=O)n(CCCN3CCOCC3)c3c2CCCC3)c1	-16	2	2	.	-16	.	i	-9
Cc1ccccc1-n1c(SCC(=O)N/N=C/c2c(C)nn(-c3ccccc3)c2C)nc2ccccc2c1=O	28	13	-17	1	-17	-10	i	-15
CC(C)NC(=O)c1onc(CSc2ccc(Cl)cc2)c1C(=O)NC(C)C	12	1	-4	-12	26	2	i	7
N=C1CCCN1CC(=O)c1ccc(Cl)cc1	-7	3	3	-7	-21	120	i	.	eIF4H FP inh retest=1;PABP FP inh retest=-1
